Screening results (PubChem BioAssay)
gsp antagonist = antagonists of gsp mutant (McCune-Albright syndrome); gsp-mutant cells, cAMP HTRF, 30 min; control for the full effect not named in the record; Potency, µM (doses to about 76.9 µM), for inactives: at the top dose activity change, negative = inhibition, most hits filed as inhibitors; hit rate 0.4% among 340,000; AID 624288; active = falling curve of any shape with a large fitted effect; inconclusive = falling curve, mostly with a smaller effect; inactive = flat or rising curve; cell line not stated here;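 further: intracellular cAMP measured with PDE inhibitor Ro 20-1724 present during compound exposure; potency means the concentration at half of the fitted maximal effect; on the % scale 0 is the no-effect control and ±100 the full control effect; nearly all actives have a fitted effect of over 65% in size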
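Measurement of cellular cAMP by homogeneous time-resolved fluorescence following a 30 min compound exposure at 37C. The PDE inhibitor […] was present throughout; the assay buffer was DPBS with 0.05% BSA and 0.005% Tween 20.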
TRPV1 potentiator = enhances activation of the human vanilloid receptor TRPV1 | Q8NER1 | TRPV1-expressing cells, Fluo-8 calcium influx, capsaicin EC20 potentiation; host cell line not named in the record; control for the full effect not named in the record | potentiation, % at 8.33 µM | hit rate 0.02% among 320,000 | AID 540277; active means potentiation above 80%; inconclusive means 30% to 80%; inactive means below 30%; further: 0% is about no effect
Target sequence (Q8NER1 whole entry, looked up): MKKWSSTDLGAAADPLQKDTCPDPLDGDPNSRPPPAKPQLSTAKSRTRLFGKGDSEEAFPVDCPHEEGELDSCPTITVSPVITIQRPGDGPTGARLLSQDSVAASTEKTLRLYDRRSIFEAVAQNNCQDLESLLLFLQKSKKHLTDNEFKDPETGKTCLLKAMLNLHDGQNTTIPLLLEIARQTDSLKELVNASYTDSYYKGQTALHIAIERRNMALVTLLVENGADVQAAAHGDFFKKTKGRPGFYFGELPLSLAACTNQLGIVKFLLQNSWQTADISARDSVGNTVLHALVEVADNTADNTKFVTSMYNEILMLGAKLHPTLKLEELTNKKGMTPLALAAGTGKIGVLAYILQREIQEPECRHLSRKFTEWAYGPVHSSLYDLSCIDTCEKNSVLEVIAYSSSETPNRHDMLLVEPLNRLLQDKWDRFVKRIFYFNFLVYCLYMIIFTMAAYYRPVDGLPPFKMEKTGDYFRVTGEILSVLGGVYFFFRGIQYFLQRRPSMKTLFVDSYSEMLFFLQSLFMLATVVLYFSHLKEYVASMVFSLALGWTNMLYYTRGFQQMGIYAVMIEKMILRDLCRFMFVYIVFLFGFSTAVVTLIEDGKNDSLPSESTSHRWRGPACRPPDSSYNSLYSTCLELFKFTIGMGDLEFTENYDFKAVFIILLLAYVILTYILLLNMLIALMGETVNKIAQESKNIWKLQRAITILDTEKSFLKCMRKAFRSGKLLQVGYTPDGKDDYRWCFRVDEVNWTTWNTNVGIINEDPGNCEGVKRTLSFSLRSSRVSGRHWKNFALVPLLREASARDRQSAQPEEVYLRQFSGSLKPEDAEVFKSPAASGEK
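Fluo-8 calcium influx in TRPV1-expressing cells, kinetic read (ex 480/em 520 nm). Compound added and read 3 min for agonist activity, followed by capsaicin at EC20 final and 2 min further read for enhancement.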
D2 PAM = positive allosteric modulators of human D2 dopamine receptor | P14416 | DiscoveRx D2 beta-arrestin cells, luminescence, 90 min; 100% = 57 uM dopamine signal | potentiation, % (no concentration beside the values) | hit rate 0.23% among 360,000 | AID 624464; active = potentiation of 50% or more; inconclusive = 30% to 50%; inactive = 30% or less;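 further: compound concentration not given in the record; tested on top of an EC20 dose of dopamine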
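D2 cells co-treated with compound plus 50 nM dopamine (EC20) for 90 min at 37 deg C to detect potentiation. Beta-arrestin recruitment was read as enzyme-fragment luminescence after 1 h at ambient temperature. Full response was set by 57 uM dopamine.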
ClpP mod = qHTS Assay for Activators of ClpP; Potency, µM (highest dose often 57.5 µM), for the others: at the highest dose activity change, negative = active; hit rate 1.9% among 340,000; purified B. subtilis ClpP, FRET peptide cleavage, 20 min; ATP-dependent Clp protease proteolytic subunit (Bacillus subtilis (strain 168)), P80244; active = well fitted falling curve with a large enough effect; inconclusive = small, poorly fitted or top-dose-only effect; inactive = no such curve, though single readings can be large or run the other way; further: potency means the concentration at half of the fitted maximal effect; the source files actives as falling curves though it sought activators and does not explain the sign; nearly all actives have a fitted effect of over 65% in size; many hits overshoot -100%
Target sequence (P80244 whole entry, looked up): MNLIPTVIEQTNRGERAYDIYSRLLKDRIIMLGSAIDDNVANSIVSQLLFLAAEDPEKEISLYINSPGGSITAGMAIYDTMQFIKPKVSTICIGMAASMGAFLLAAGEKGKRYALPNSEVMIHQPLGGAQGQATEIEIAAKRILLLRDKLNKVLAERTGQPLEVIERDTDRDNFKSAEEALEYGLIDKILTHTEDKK
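ClpP 10 microg/mL final, pH 8 Tris/KCl buffer with BSA, glycerol, Tween-20; compound pinned in; FRET-FV substrate; RT 20 min; Ex320/Em430; ΔFRET vs ADEP 5.8 microM, DMSO, no enzyme.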
Sfp PPTase inh = Sfp phosphopantetheinyl transferase inhibition | Q9F4F7 | Biochemical Sfp PPTase activity, qHTS | Potency, µM, for inactives: max response, negative = inhibition, usual class: inhibitors | hit rate 3.5% among 310,000; active means well fitted inhibition curve with a large enough effect; inconclusive means small, poorly fitted or top-dose-only effect, or another doubt; inactive means no such curve, though single readings can be large or run the other way;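 further: the enzyme is Sfp with the accession as filed and its product quenches rhodamine fluorescence; potency means the concentration at half of the fitted maximal effect; 0% = enzyme reaction without inhibitor and -100% = no enzyme wells; top concentration of the series not given in the record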
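Fluorescence-quenching assay: 15 nM Sfp-PPTase preincubated 15 min at room temperature with compound, then 5 uM rhodamine-CoA and 12.5 uM BHQ-2-labelled YbbR peptide added. Fluorescence (ex 525/em 598 nm) read at start and after 30 min; difference gives rate.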
gsp agonist = agonists of gsp mutant (McCune-Albright syndrome) | gsp mutant cells, cAMP HTRF, 30 min; control for the full effect not named in the record | Potency, µM (series often up to 76.9 µM), without a hit: at the highest dose activation (cAMP increase), hits mostly activators | hit rate 0.13% among 340,000 | AID 624287; active = well fitted activation curve with a large enough effect; inconclusive = small, poorly fitted or top-dose-only effect, or another doubt; inactive = no such curve, though single readings can be large or run the other way; cell line not stated here;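 further: phosphodiesterase inhibitor Ro 20-1724 added with compounds to block cAMP breakdown; potency means the concentration at half of the fitted maximal effect; nearly all actives have a fitted effect of over 60% in size; about a fifth of the inactives were tested at one dose only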
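Cells stably selected in G418 were plated at 2000/well, grown 16-24 hr, then given compounds in DMSO with the PDE inhibitor […] (300 uM solution added) for 30 min at 37C; cAMP was read by HTRF.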
Menin-MLL FL inh = menin-MLL binding inhibition, fluorescein peptide; 290,000 tested, under 10 active; FP activity change, % at 61.4 µM; Fluorescence polarization, fluorescein-MLL peptide displacement from menin; inconclusive = falling polarisation curve, or a change in total fluorescence; inactive = total fluorescence flat and polarisation flat or rising; no compound was filed as active; the % refers to the polarisation; negative = inhibition;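 further: % of control where 0% means no effect; inhibitors lower the polarisation; unlabelled MLL peptide was the positive control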
An asterisk follows results filed as active; ? = inconclusive; / = not tested or not shown; & = joins results of further samples; [ ] = remark or other dose. Some of the compounds tested; count on the stated rates, not on these rows.

Key to letters: A = gsp antagonist; B = TRPV1 potentiator; C = D2 PAM; D = ClpP mod; E = Sfp PPTase inh; F = gsp agonist; G = Menin-MLL FL inh
molecule: N#CC[N+]1(CCCNP2(=O)C=C(c3ccccc3)OC(c3ccccc3)=C2)CCOCC1
  A: 5.9% | B: 1.4 | C: -4.8 | D: -5.2% | E: 2.7% | F: 4.6% | G: 4.2

molecule: FC(F)(F)c1ccc(CNCCc2c[nH]c3ccccc23)cc1
  A: 13.5% | B: 12.6 | C: -21.6 | D: -1.7% | E: -0.1% | F: 12.5% | G: -2.5

molecule: O=Cc1cn(Cc2ccc(F)cc2Cl)c2ccccc12
  A: 7.8% | B: 5.6 | C: 2.0 | D: 0.5% | E: 0.1% | F: -12.6%[15.4 µM] | G: 13.6

molecule: O=C(O)c1cc[c]([Hg][Cl])cc1
  A: -10.6% | B: 1.0 | C: -23.5 | D: 0.3% | E: / | F: / | G: 2.4

molecule: COc1cccc(CN2CCN(C(=O)COc3ccc4ccccc4c3)CC2)c1
  A: -19.2% | B: -2.6 | C: -7.7 | D: 1.1% | E: ? | F: -0.8% | G: 0.3

molecule: COc1ccc(CN2CCN(c3ccccc3F)CC2)c(OC)c1
  A: / | B: -10.7 | C: / | D: / | E: -10.9% | F: / | G: 0.3

molecule: COC(=O)C1=C(c2ccc(OC)c(OC)c2)C[C@@H]2CC[C@H]1N2C(=O)N1CCOCC1
  A: 12.0% | B: 4.1 | C: -2.0 | D: 0.8% | E: / | F: -8.6% | G: /

molecule: N#CCCn1cc(C(=O)NCc2ccccc2)c(-c2ccc3c(c2)OCCO3)n1
  A: 9.8% | B: 8.2 | C: -5.0 | D: 0.6% | E: 13.7% | F: 4.5%[15.4 µM] | G: -3.0

molecule: CC(=NCCN1CCCCC1)c1c(O)[nH]c(=O)[nH]c1=O
  A: 2.4% | B: 2.9 | C: -23.7 | D: -2.4% | E: 5.1% | F: 0.0% | G: -0.3

molecule: C/C=C/CC1(CC)C(=O)NC(=S)NC1=O
  A: -1.4% | B: 2.7 | C: -20.2 | D: -0.5% | E: -22.1% | F: -26.8% | G: 2.0

molecule: Cc1cccc(CN(C)C)c1OC(=O)N(C)C
  A: 11.3% | B: 1.6 | C: 0.1 | D: -3.6% | E: -22.1% | F: 24.6% | G: 3.6

molecule: O=P1(Oc2ccccc2)C[C@@H](O)[C@@H](O)[C@H](COCc2ccccc2)O1 (some centres undefined)
  A: 6.8% | B: -5.8 | C: -12.8 | D: 2.3% | E: 27.2% | F: 16.3% | G: 1.3

molecule: CCOC(=O)C1=C(C)OC(N)=C(C#N)C12C(=O)N(C)c1ccccc12 (centres undefined)
  A: -5.1% | B: -1.8 | C: ? | D: 1.4% | E: 0.6% | F: -29.3% | G: -0.8

molecule: CCCn1ncc(CN2CCCC(C(=O)c3cccc(OC)c3)C2)c1C (centres undefined)
  A: 10.0% | B: -13.2 | C: -1.4 | D: / | E: 0.7% | F: 1.8%[15.4 µM] | G: -6.1

molecule: C[C@]12CC[C@@H]3c4ccc(O)c(O)c4CC[C@H]3[C@@H]1CC[C@@H]2O
  A: -5.5% | B: -11.6 | C: 20.8 | D: 2.0% | E: 3.16µM* | F: / | G: -2.3

In another format: entries from further up
Cc1cccc(CN(C)C)c1OC(=O)N(C)C
  gsp antagonist: 11.3%
  TRPV1 potentiator: 1.6
  D2 PAM: 0.1
  ClpP mod: -3.6%
  Sfp PPTase inh: -22.1%
  gsp agonist: 24.6%
  Menin-MLL FL inh: 3.6
O=P1(Oc2ccccc2)C[C@@H](O)[C@@H](O)[C@H](COCc2ccccc2)O1 (some centres undefined)
  gsp antagonist: 6.8%
  TRPV1 potentiator: -5.8
  D2 PAM: -12.8
  ClpP mod: 2.3%
  Sfp PPTase inh: 27.2%
  gsp agonist: 16.3%
  Menin-MLL FL inh: 1.3
CCOC(=O)C1=C(C)OC(N)=C(C#N)C12C(=O)N(C)c1ccccc12 (centres undefined)
  gsp antagonist: -5.1%
  TRPV1 potentiator: -1.8
  D2 PAM: ?
  ClpP mod: 1.4%
  Sfp PPTase inh: 0.6%
  gsp agonist: -29.3%
  Menin-MLL FL inh: -0.8
CCCn1ncc(CN2CCCC(C(=O)c3cccc(OC)c3)C2)c1C (centres undefined)
  gsp antagonist: 10.0%
  TRPV1 potentiator: -13.2
  D2 PAM: -1.4
  ClpP mod: /
  Sfp PPTase inh: 0.7%
  gsp agonist: 1.8%[15.4 µM]
  Menin-MLL FL inh: -6.1

(next part)
Key to letters: A = gsp antagonist; B = TRPV1 potentiator; C = D2 PAM; D = ClpP mod; E = Sfp PPTase inh; F = gsp agonist; G = Menin-MLL FL inh
molecule: C[C@]12CCC3C(CC[C@H]4C[C@H](OC(=O)c5cccnc5)CC[C@]34C)C1CCC2=O (some centres undefined)
  A: -24.7% | B: / | C: -6.5 | D: / | E: / | F: 20.6% | G: /

molecule: O=S(=O)(c1ccc(F)cc1)N1CCCC1c1cccnc1 (centres undefined)
  A: 3.8% | B: ? | C: -5.0 | D: -0.2% | E: 0.4% | F: -1.0% | G: -0.6

molecule: COC(=O)C1=C(c2cccc(OCc3ccccc3)c2)C[C@@H]2CC[C@H]1N2C(=O)NCc1cc(C)oc1C(F)(F)F
  A: -6.1% | B: -30.6 | C: -5.6 | D: -1.3% | E: / | F: -13.0% | G: /

molecule: CC(C)n1c(O)c(C2c3cc(Cl)ccc3Oc3[nH]c(=O)n(C(C)C)c(=O)c32)c(=O)[nH]c1=O (centres undefined)
  A: -20.7% | B: -5.4 | C: -11.5 | D: / | E: 28.2µM* | F: 17.0%[15.4 µM] | G: 0.6

molecule: C[C@]12CC(=O)CC1CCC1C2CC[C@@]2(C)C1CC[C@@H]2O (some centres undefined)
  A: 3.0% | B: 6.5 | C: -5.1 | D: 1.1% | E: -1.5% | F: ? | G: -8.3

molecule: O=C(O)CCC(=O)N1N=C(c2c(-c3ccccc3)c3cc(Cl)ccc3[nH]c2=O)CC1c1ccco1 (centres undefined)
  A: 2.3% | B: -3.8 | C: 9.3 | D: ? | E: -8.4% | F: -36.0% | G: 4.6

molecule: CCN(CC)S(=O)(=O)c1cccc(N=Nc2c(O)n(CC)c(=S)n(CC)c2=O)c1
  A: -8.0% | B: 2.9 | C: -8.2 | D: -0.5% | E: 11.7% | F: -10.3% | G: -1.0

molecule: Cc1ccc2c(c1)C1C[N+](C)(CC(=O)c3ccc(Cl)cc3Cl)CCC1N2C(=O)c1ccc(F)cc1 (centres undefined)
  A: 8.0% | B: / | C: -7.8 | D: -0.4% | E: / | F: -0.9% | G: /

molecule: CC(NC(C)(C)C)C(=O)c1cccc(Cl)c1 (centres undefined)
  A: -0.8% | B: -1.5 | C: -25.6 | D: -1.0% | E: -16.7%&11.4% | F: / | G: 1.8&5.4&-0.7

molecule: O=C(O)C1C2CC3CC(C2)CC1(n1ncc(N2CCC4(CC2)OCCO4)c(Cl)c1=O)C3 (centres undefined)
  A: 3.5% | B: 5.8 | C: 1.9 | D: / | E: 7.3% | F: -8.9%[15.4 µM] | G: 5.5

molecule: CC(C)Oc1cccc(NC(=O)c2cccn(Cc3ccc4c(c3)OC(F)(F)O4)c2=O)c1
  A: -6.9% | B: 27.4 | C: -14.1 | D: -11.4% | E: 8.3% | F: 12.5% | G: -0.9

molecule: CCN(CC)P(=S)(c1c(C)nc2ccccn12)c1c(C)nc2ccccn12
  A: -7.1% | B: 1.6 | C: -8.9 | D: -16.6% | E: 50.1µM* | F: -23.1% | G: -4.6

molecule: Cc1cccc(-n2c(O)c(/C=C3/C(c4ccccc4)=Nc4ccccc43)c(=O)[nH]c2=O)c1
  A: -2.9% | B: -8.9 | C: -13.8 | D: -11.4% | E: -15.6% | F: ? | G: ?

molecule: FCCN(CCF)c1cccc(Cl)c1
  A: 3.9% | B: 10.9 | C: -1.0 | D: / | E: 21.3% | F: -12.2% | G: -2.6

molecule: COc1ccc(-n2c(-c3ccccc3[N+](=O)[O-])nc3ccccc3c2=O)cc1
  A: 0.2% | B: -4.2 | C: -2.1 | D: / | E: -3.8% | F: -0.8% | G: -11.9

3 of the compounds above, with values under each structure.
The line under a structure holds: gsp antagonist | TRPV1 potentiator | D2 PAM | ClpP mod | Sfp PPTase inh | gsp agonist | Menin-MLL FL inh
- O=C(O)c1cc[c]([Hg][Cl])cc1
    -10.6% | 1.0 | -23.5 | 0.3% | / | / | 2.4
- N#CCCn1cc(C(=O)NCc2ccccc2)c(-c2ccc3c(c2)OCCO3)n1
    9.8% | 8.2 | -5.0 | 0.6% | 13.7% | 4.5%[15.4 µM] | -3.0
- COC(=O)C1=C(c2ccc(OC)c(OC)c2)C[C@@H]2CC[C@H]1N2C(=O)N1CCOCC1
    12.0% | 4.1 | -2.0 | 0.8% | / | -8.6% | /

The list continues:
Key to letters: A = gsp antagonist; B = TRPV1 potentiator; C = D2 PAM; D = ClpP mod; E = Sfp PPTase inh; F = gsp agonist; G = Menin-MLL FL inh
molecule: COCc1c(CN)cnc(C)c1N
  A: 2.1% | B: -16.7 | C: 0.4 | D: ? | E: 5.8% | F: -31.7%[inhibitor] | G: 2.0

molecule: COc1ccc(CCN(C)Cc2ccncc2)cc1OC
  A: 16.9% | B: 1.2 | C: -5.3 | D: -0.1% | E: 39.8µM* | F: -2.4% | G: 1.4

molecule: COc1c(C)cc(C(=O)C2CCCN(Cc3cccc(C)n3)C2)cc1C (centres undefined)
  A: 1.5% | B: 20.6 | C: -16.2 | D: 1.7% | E: 17.3% | F: 8.1% | G: -1.2

molecule: CN(C)CC1CCCCC1=O (centres undefined)
  A: 7.1% | B: -5.7 | C: -5.6 | D: / | E: 9.1% | F: 16.6%[15.4 µM] | G: 0.8
